From PubChem
Ecoli rRNA inh: inhibits bacterial ribosomal RNA function over humanized ribosomes. E. coli WT GFP vs humanized-ribosome RFP mutants, fluorescence, 24 h; hits give low values; DMSO median 0, no signal -100. GFP signal change (wild-type ribosome), % (concentration not given with the values). actives 1.6% (n = 350,000);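 active means significant combined selectivity score with lowered wild-type GFP, culture density cut under 30%, mutant RFP and density less affected; inactive means any of these conditions unmet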; further: one replicate is shown; some compounds called inactive have numbers as strong as hits
E coli growth: inhibitors of Escherichia coli growth | actives 0.21% (n = 330,000) | OD600, 23 h; hits give low values | AID 1053175 | OD600 absorbance (test concentration not listed);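 active means OD600 absorbance below the run mean of sample wells minus 3.6 SD, in any replicate, cut at about 0.56 in these data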;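 further: stock transfer was 300 nL into about 60 µL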
FGF22 binding: binders of recombinant human FGF22 by thermal shift; AID 651658; calls only at 9.99 µM; actives 1.5% (n = 340,000); SYPRO orange fluorescence; percent of sucrose octasulfate shift, DMSO zero;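 active means melting point raised past a set limit in the mean and every replicate; inconclusive means no clear call; three in four hits are not shown here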
Target sequence (Q9HCT0 whole entry, looked up): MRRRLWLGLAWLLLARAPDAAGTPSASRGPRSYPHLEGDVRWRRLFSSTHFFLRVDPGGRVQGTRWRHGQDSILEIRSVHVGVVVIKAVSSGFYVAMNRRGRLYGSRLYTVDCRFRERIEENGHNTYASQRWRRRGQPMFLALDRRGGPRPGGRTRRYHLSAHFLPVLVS
UCH37 inh: inhibitors of human deubiquitinating enzyme UCH37 | purified proteasome/UCH37, Ub-AMC cleavage fluorescence | inhibition, % (no concentration beside the values) | actives 0.33% (n = 330,000);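 active means mean of two replicates above 20%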;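 further: 0% = compound-free wells with enzyme and 100% = wells lacking proteasome; stock transfer was 100 nL into about 20 µL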
Target sequence (Q9Y5K5 whole entry, looked up): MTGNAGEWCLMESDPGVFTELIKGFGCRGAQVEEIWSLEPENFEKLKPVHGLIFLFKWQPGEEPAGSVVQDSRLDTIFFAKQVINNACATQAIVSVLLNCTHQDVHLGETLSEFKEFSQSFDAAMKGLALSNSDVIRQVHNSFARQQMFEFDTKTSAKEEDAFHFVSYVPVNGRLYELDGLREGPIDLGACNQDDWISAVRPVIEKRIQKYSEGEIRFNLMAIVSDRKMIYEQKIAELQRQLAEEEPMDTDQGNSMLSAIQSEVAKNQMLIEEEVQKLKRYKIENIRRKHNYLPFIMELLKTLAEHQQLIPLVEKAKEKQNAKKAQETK
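system = Proteasome-associated human UCH37 deubiquitinase | amount = 0.15 nM proteasome as dispensed | medium = pH 7.4 Tris-HCl (50 mM) with ovalbumin, ATP-MgCl2, DTT | incubation = 30 min preincubation with enzyme, 25 min cleavage at room temperature | detection = AMC fluorescence 355/460 nm | read-out basis = percent inhibition | controls = no-proteasome and no-compound wells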
MLL AF4-AF9 inh: MLL-AF4/AF9 protein interaction inhibition; P42568; AlphaScreen, biotin-AF4 peptide binding to FLAG-AF9; inhibition, % at 10 µM; actives 0.47% (n = 350,000);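 active means every replicate reaching a set inhibition limit, whatever the replicate mean, cut at about 25% in these data; inconclusive means mean inhibition reaches that limit but some replicates miss it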;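 further: 0% = plate neutral control median and 100% = total signal loss; the record names both 10 and 1 µM as test concentration; the first replicate is given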
Target sequence (P42568 whole entry, looked up): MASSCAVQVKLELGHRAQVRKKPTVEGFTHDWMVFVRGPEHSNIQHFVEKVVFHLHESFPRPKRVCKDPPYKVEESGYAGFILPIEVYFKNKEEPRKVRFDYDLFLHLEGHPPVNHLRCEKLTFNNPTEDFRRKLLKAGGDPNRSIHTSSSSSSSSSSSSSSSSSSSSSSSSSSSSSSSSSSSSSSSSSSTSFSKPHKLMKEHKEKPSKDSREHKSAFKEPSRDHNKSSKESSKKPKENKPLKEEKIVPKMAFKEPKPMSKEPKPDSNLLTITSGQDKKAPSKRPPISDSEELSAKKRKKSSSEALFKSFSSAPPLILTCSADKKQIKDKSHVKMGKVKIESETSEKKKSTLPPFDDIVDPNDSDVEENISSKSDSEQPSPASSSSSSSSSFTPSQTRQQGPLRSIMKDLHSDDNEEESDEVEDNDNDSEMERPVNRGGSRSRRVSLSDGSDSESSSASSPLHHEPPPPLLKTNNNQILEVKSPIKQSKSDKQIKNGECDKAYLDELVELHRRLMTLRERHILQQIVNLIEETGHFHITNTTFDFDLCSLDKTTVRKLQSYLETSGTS
T cruzi repl: blocks replication of Trypanosoma cruzi; T. cruzi beta-gal in NIH3T3, luminescence, 90 h; inhibition, % (no concentration beside the values); actives 1.4% (n = 300,000);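 active means mean inhibition across valid replicates above about 55%, limit read from the data; inconclusive means mean below that limit but half or more replicates reach it; inactive means mean below it, under half of replicates reach it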;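 further: signal also drops with host cell toxicity which is not excluded here; 0% = plate median of DMSO wells and 100% = zero luminescence signal; higher percent means less beta-gal luminescence so fewer parasites; stock transfer was 50 nL into about 50 µL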
A1 inh: inhibitors of the anti-apoptotic protein A1, read as caspase activation | caspase activation, % (no concentration beside the values) | MEF A1-2A-BIM cells, Caspase-Glo 3/7 luminescence, 3 h; percent of clofoctol response, vehicle zero | actives 0.066% (n = 330,000);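 active means over half of replicate activation scores above 10%, or exactly half above 10 with the replicate mean above 10; inconclusive means replicate mean below 10 yet half the replicates above 10; inactive means over half of replicates below 10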;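 further: wells of about 30 µL received 50 nL stock; many hits fall short of the cut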
Beta cell apopt: blocks beta cell apoptosis. AID 435005. protection from apoptosis, % (concentration not given with the values). INS-1E cytokine-induced death, ATP luminescence, 48 h; percent of positive-control rescue, neutral wells zero. actives 0.8% (n = 300,000);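 active means all replicates at 75% or more, or half of them and the mean; inconclusive means half reach 75% but not the mean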;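 further: 0% = cytokine-treated negative control wells and 100% = positive control rescue; higher means more ATP so stronger rescue from cytokine killing; wells of about 40 µL received 100 nL stock; the first replicate is given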
Ecoli rRNA inh OD600: further read-out of Ecoli rRNA inh, marked with its call; OD600 change, %; measured here: OD600 growth;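 optical density of the mix in the first replicate; 0 = DMSO median and -100 = no signal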
Ecoli rRNA inh RFP: also measured in Ecoli rRNA inh; calls as there; RFP signal change, %; measured here: RFP humanized mutant strains;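 first replicate; 0 = DMSO median and -100 = no signal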
The depositor's hits bear a star; i = inactive; ? = inconclusive; / = not tested or not shown; & = joins results of further samples. A portion of the library; the hit share may differ from the screen's.

SMILES	Ecoli rRNA inh	Ecoli rRNA inh OD600	Ecoli rRNA inh RFP	E coli growth	FGF22 binding	UCH37 inh	MLL AF4-AF9 inh	T cruzi repl	A1 inh	Beta cell apopt
OC1CCN(C(=S)Nc2ccc(Oc3ccccc3)cc2)CC1	-20	-18	-2.9	0.65	i	3.9	4.7	-2	0.2	-4
Cc1ccc(CN2[C@@H](CC(C)C)COCCS2(=O)=O)cc1	-13	-25	-6.8	/	i	2.6	-2.3	6	-1.1	-1
CC(C)CNC(=S)NC(=O)c1ccccc1Cl	/	/	/	0.67	/	2.4	/	-2	-1.1	-10
COC(=O)n1c(=O)oc2ccc(S(=O)(=O)N3CCCCC3)cc21	2	-7	-0.9	0.69	i	4.1	0.4	2	1.1	-5
COc1ccc(C(=O)NCc2ccncc2)cc1S(=O)(=O)N1CCOCC1	4	18	-0.9	0.69	i	-1.2	0.0	/	0.4	-1
O=C(CSc1nnc(Cc2ccccc2)o1)Nc1ccc(N2CCOCC2)cc1	6	7	1.2	0.65	i	1.6	6.8	/	-0.5	3
O=C(NCc1csc(-c2ccccc2)n1)c1ccco1	/	/	/	0.64	/	3.4	/	-9	0.4	-1
CN(C)CCNC(=O)CN1C(=O)COc2ccc(C(C)(C)C)cc21	/	/	/	0.72	i	5.4	-19	-4	0.1	0
O=c1c2ccccc2nc(-c2ccc(Cl)cc2Cl)n1O	9	3	-5.1	0.69	/	3.9	0.2	3	0.1	-3
COc1ccc(C(=O)Nc2ccc(NC(=O)C3CCCCC3)nc2)cc1	4	-1	-0.3	0.66	i	5.9	-1.9	6	0.1	1
O=C(CSc1n[nH]c(-c2ccccc2)n1)Nc1ccc(Br)cn1	/	/	/	0.7	/	-5.2	/	2	0.0	-3
O=C(C1=NN[C@@H]2C(=O)N(c3cccc(C(F)(F)F)c3)C(=O)[C@H]12)c1cnccn1	9	4	0.1	0.68	i	8.1	3.2	-1	-0.1	/
Cc1noc(C)c1CSc1nnc(-c2ccncc2)n1-c1cccc(Cl)c1C	/	/	/	0.67	/	5.8	/	27	0.2	3
O=C(COc1ccc([N+](=O)[O-])cc1Cl)N(C1CCCCC1)C1CCS(=O)(=O)C1 (centres undefined)	-2	6	-5.0	0.7	i	3.1	2.4	/	/	/
Cc1ccc(S(=O)(=O)NNc2ccccc2)c(C)c1	8	7	-8.2	0.7	i	0.6	-44	/	-0.6	1
COc1ccc(C(=O)NCc2ccc3[nH]c(C)cc3c2)cc1OC	8	8	2.8	0.66	i	0.8	0.0	-19	0.1	-2
COc1ccc(NC(=O)[C@H](C)NC(=O)C2CCN(S(=O)(=O)c3ccc(C)cc3)CC2)cc1	5	10	3.9	0.71	i	2.2	-1.0	1	0.4	-4
CSc1nc(NCC(C)O)c2c3c(sc2n1)CN(C)CC3 (centres undefined)	-10	-4	9.9	/	i	/	1.9	10	-0.3	-6
Nc1ccc(Cl)c(S(=O)(=O)Nc2cccc(Cl)c2)c1	-13	-3	5.1	0.64	i	-1.4	-1.1	2	-1.0	-4
COc1ccccc1C(=O)N/C(=C\c1cn(S(=O)(=O)N(C)C)c2ccccc12)C(=O)N1CCOCC1	17	12	1.7	0.69	i	-12	-1.6	-2	0.8	6

A draw from above in order of formula weight, low to high.
SMILES	Ecoli rRNA inh	Ecoli rRNA inh OD600	Ecoli rRNA inh RFP	E coli growth	FGF22 binding	UCH37 inh	MLL AF4-AF9 inh	T cruzi repl	A1 inh	Beta cell apopt
CSc1nc(NCC(C)O)c2c3c(sc2n1)CN(C)CC3 (centres undefined)	-10	-4	9.9	/	i	/	1.9	10	-0.3	-6
COC(=O)n1c(=O)oc2ccc(S(=O)(=O)N3CCCCC3)cc21	2	-7	-0.9	0.69	i	4.1	0.4	2	1.1	-5
COc1ccccc1C(=O)N/C(=C\c1cn(S(=O)(=O)N(C)C)c2ccccc12)C(=O)N1CCOCC1	17	12	1.7	0.69	i	-12	-1.6	-2	0.8	6

The list continues:
SMILES	Ecoli rRNA inh	Ecoli rRNA inh OD600	Ecoli rRNA inh RFP	E coli growth	FGF22 binding	UCH37 inh	MLL AF4-AF9 inh	T cruzi repl	A1 inh	Beta cell apopt
CCOC(=O)c1ccc(CC2SC(N)=NC2=O)cc1 (centres undefined)	11	13	1.8	0.7	i	-2.0	-1.2	-12	0.6	-3
Cc1cc2c([nH]c3ccccc32)c2c1OC(C)(C)C=C2	/	/	/	0.73	i	2.7	11	0	1.7	/
COc1ccccc1CNC(=O)C1CCN(S(=O)(=O)c2ccc3c(c2)C(C)(C)C(=O)N3C)CC1	-6	-4	-3.2	0.72	i	3.9	-2.2	-1	0.6	5
Cc1ccc(-c2cc(-c3ccccc3)no2)c(O)c1	/	/	/	0.71	/	3.0	/	6	-9.5	-3
CCOc1ccc2cc(C(=O)NCc3ccccc3)c(=N)oc2c1	-2	5	0.0	0.65	i	-52	-0.3	5	0.9	-4
Cc1cc(F)ccc1S(=O)(=O)N1CCCOC1CNC(=O)C(=O)NCCN1CCOCC1 (centres undefined)	11	6	3.7	0.71	i	-2.3	-0.3	-7	0.4	-7
COc1cc(OC)cc(C(=O)NC2CCN(CCCOc3ccccc3)CC2)c1	22	11	3.8	0.69	i	-0.6	4.7	3	0.2	/
COC(=O)C1=C(N)OC2=C(C(=O)CC(C)(C)C2)C1c1cc2c(cc1Cl)OCO2 (centres undefined)	-2	-1	2.9	0.69	i	2.8	-4.7	-3	0.6	5
CCOc1ccc(C(CC(=O)O)NC(=O)C23CC4CC(CC(C4)C2)C3)cc1 (centres undefined)	/	/	/	0.66	/	1.4	/	-9	0.4	2
CC(=O)C[C@@H](O)CC(=O)[C@@H]1OC(=O)CCCCCCCCc2ccccc21	-19	-20	-12	/	i	-1.2	0.7	/	1.2	4
CO/N=C(\Cn1ncc(N2CCOCC2)c(Br)c1=O)c1ccc(Cl)cc1	-18	-16	-1.0	/	i	/	2.7	7	1.6	-4
CC(=O)/C=C\c1cn(-c2ncc(C(F)(F)F)cc2Cl)c2ccccc12	/	/	/	0.7	/	5.2	/	30	0.6	6
Cn1c2c(c(=O)n(C)c1=O)C(C(F)(F)F)(C(F)(F)F)N=C(c1ccc(Cl)cc1)N2	/	/	/	0.64	/	3.0	/	24	0.0	139*
CN(c1ccccc1)S(=O)(=O)c1ccc(NC(=O)C2CC2)cc1	-11	-4	4.3	0.67	i	-1.1	-2.2	2	1.4	/
O=C(O)c1ccccc1NS(=O)(=O)c1cccc(-n2sc3ccccc3c2=O)c1	1	-5	6.0	0.68	/	3.4	-5.6	-5	-1.3	-10
CCCOc1ccc(OCCOCCN2CCc3ccccc3C2)cc1	/	/	/	0.68	/	2.7	/	71*	0.6	9
CCOc1ccccc1/C=N/NC(=O)CNC(=O)c1ccc(S(=O)(=O)N2CCOCC2)cc1	15	10	1.0	/	i	/	1.2	-8	-0.4	-6
CCCCOCCCNC(=O)C1CCCCC1	8	8	3.0	0.67	i	0.8	-3.3	/	0.3	-6
COc1cc(/C=C2\SC(=N)N(c3ccc(F)cc3)C2=O)ccc1O	-14	-19	3.3	0.72	/	4.2	-0.8	9	-0.3	0
C=CCNc1nc(N)c([N+](=O)[O-])c(NCc2ccccc2)n1	/	/	/	0.7	/	3.0	/	-22	0.4	-9
O=C(N/N=C/c1cc2c(cc1Cl)OCO2)c1cccc(Br)c1	5	0	-0.6	/	i	/	-3.3	9	0.0	1
Cc1nc2scc(C)n2c(=O)c1S(=O)(=O)NC(C)c1ccccc1 (centres undefined)	3	11	-1.8	0.6	i	-210	2.8	-18	0.5	-3
CCOC(=O)Cc1nnn(CC(=O)OCC)n1	/	/	/	0.76	/	-0.8	/	-18	0.4	-4
C[N+]1(C2CCC3CCCC2C3O)CCCCC1 (centres undefined)	19	2	0.2	0.69	i	2.6	-2.1	-29	0.0	0
CC(C)NC(=O)C(C)Oc1ccc(S(=O)(=O)NCc2ccc3c(c2)OCO3)cc1 (centres undefined)	15	8	1.5	0.71	i	-2.3	-0.3	-3	0.1	1
CCOc1ccc(/C=C2\SC(=S)N(N3C(=O)C4CC4C3=O)C2=O)cc1 (centres undefined)	10	14	0.3	0.69	i	5.4	0.0	-4	0.6	1
COc1ccccc1N1CCN(C(=O)Nc2ccc(F)c(Cl)c2)CC1	-21	-23	-0.4	0.67	i	0.9	0.0	-9	-0.3	3
Cn1cc(CCC(=O)NCCCc2ccccc2)c2ccccc21	-29	-32	-5.5	0.65	i	2.2	3.8	2	0.3	-5
O=C(CCC(=O)N/N=C/c1ccc(Br)o1)N/N=C/c1ccc(Br)o1	12	13	-2.6	/	i	/	-5.0	-2	0.4	-2
COc1ccc(N(CC(=O)NCCSc2ccccc2)S(C)(=O)=O)cc1	3	-3	4.6	0.66	i	-1.2	-0.1	10	0.4	-2
CCn1cc(CN2CCC(n3nccc3NC(=O)CCc3ccccc3)CC2)cn1	8	16	1.3	0.68	i	3.2	2.9	19	0.6	-1
N#C/C(C(=O)c1ccccc1)=C1/CCCCCN1	/	/	/	0.7	/	2.3	/	-8	-4.3	6
CCOC(=O)c1ccc(NC=C2C(=O)OC3(CCCCC3)OC2=O)cc1	/	/	/	0.76	/	-25	/	/	-2.3	-6
Cc1cnc(C(=O)OC(C(=O)c2c[nH]c3ccccc23)c2ccccc2)cn1 (centres undefined)	-6	-5	12	0.68	i	-0.9	3.6	-14	?	1
Cc1ccc(-n2nc(-c3ccccc3)cc2Nc2ccccc2N)cc1	3	2	2.1	0.7	i	2.7	3.9	16	2.1	5
CC1=NN(c2cccc(Cl)c2)C(=O)C1	3	3	-0.1	0.69	i	4.7	-7.3	-15	-0.2	1
CC(=O)Oc1ccc(NC(=O)C2CCCCC2)c(C(=O)O)c1	/	/	/	0.73	/	-1.8	/	1	-3.2	3
Cc1ccc(NC(=S)c2ccncc2)c(C)c1	-18	-7	-3.3	0.7	i	3.6	2.6	-2	-0.4	2
CCCOC(c1ccccc1)(c1ccccc1)C(Oc1nc(C)cc(C)n1)C(=O)O (centres undefined)	-19*	-12*	1.6*	0.72	i	0.9	-7.2	-9	-3.4	-2
C[c-]1[c-](C)[c-](C)[c-](C)[c-]1C.[Fe].c1cc2nccc(N3CCCC3)[c-]2c1 (centres undefined)	16	6	27	0.66	i	2.4	-5.1&-22	3	0.9&0.1	-2&13
COC(C(=O)N/N=C(\C)c1ccc(O)cc1)c1ccccc1 (centres undefined)	-1	9	0.4	/	i	/	-2.3	-22	1.0	-8
COc1cc(/C=N/NC(=O)c2cccnc2)ccc1OC(=O)c1ccc([N+](=O)[O-])cc1	17	22	2.7	/	i	/	0.7	5	-0.1	0
Cc1cc(OCC(=O)NC2CCN(Cc3ccccc3)CC2)c2c(C)cc(=O)oc2c1	13	14	-1.4	0.67	i	-66	-3.7	42	0.8	9
NC(=O)c1ccc(NC(=O)CN2CCOCC2)cc1	17	12	-0.5	0.66	i	2.3	-6.0	-18	0.2	/
O=C(Nc1ccc(F)cc1)N(Cc1cccs1)Cc1cc2cc3c(cc2[nH]c1=O)OCO3	/	/	/	0.7	/	-13	/	47	-0.7	/
Cc1cc(C)c(C#N)c(Oc2ccc(F)cc2)n1	/	/	/	0.7	/	-0.9	/	-11	1.0	-8
